Source: PubChem BioAssay (several laboratories)
RGS16-Gao: regulators of human RGS16-Galphao interaction; AID 1441; O15492+P09471; binding response (% of control), % at 10 µM; 0.38% of 220,000 active; bead-based flow cytometry RGS16-Galphao binding, fluorescence; actives lie on both sides;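 active = below 25% or above 175%, edge rows of some plates excepted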;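 note: Galphao activated by GDP with aluminum fluoride before binding; 100% = wells without compound and 0% = beads without RGS; some results beyond the cut were filed as inactive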
PKD1 inh: inhibitors of human PKD1 kinase. AID 797. PKD1 kinase fluorescence polarization assay. inhibition, %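 (about 10 µM by stock and volumes)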. Q15139. 0.056% of 200,000 active;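 active = inhibition of 50% or more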;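 note: controls were vehicle for no effect and a reference inhibitor for full effect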
Target sequence (Q15139 whole entry, looked up): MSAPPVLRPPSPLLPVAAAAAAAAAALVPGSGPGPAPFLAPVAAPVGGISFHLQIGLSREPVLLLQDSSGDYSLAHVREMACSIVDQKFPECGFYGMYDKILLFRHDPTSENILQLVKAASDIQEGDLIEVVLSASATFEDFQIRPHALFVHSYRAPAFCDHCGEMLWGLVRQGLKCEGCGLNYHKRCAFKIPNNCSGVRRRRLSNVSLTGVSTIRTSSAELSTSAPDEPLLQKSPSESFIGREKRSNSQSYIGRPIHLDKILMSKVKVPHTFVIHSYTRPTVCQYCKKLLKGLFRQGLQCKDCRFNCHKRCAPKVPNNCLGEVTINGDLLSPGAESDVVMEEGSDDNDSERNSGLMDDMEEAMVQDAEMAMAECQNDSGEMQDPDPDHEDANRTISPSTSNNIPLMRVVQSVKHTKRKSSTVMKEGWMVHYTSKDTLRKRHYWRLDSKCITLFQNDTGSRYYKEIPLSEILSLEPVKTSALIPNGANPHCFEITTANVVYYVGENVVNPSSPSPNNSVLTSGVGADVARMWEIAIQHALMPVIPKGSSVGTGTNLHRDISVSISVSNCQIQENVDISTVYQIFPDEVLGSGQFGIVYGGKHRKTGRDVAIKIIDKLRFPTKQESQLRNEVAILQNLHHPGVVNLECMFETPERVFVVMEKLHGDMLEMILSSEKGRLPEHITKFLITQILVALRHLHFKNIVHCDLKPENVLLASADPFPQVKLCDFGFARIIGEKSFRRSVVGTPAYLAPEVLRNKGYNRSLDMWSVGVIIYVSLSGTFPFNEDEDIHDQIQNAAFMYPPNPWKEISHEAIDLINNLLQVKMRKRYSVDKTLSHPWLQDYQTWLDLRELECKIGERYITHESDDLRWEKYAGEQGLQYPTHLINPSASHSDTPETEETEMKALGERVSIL
Insulin prom inh: TRM-6 insulin promoter activity inhibition. 0.9% of 130,000 active. inhibition, % at 2 µM. TRM-6 cells (human fetal islet line), insulin promoter-eGFP reporter, imaging; reporter expression induced with tamoxifen;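 active = inhibition above the mean plus 3 SD, with well images judged a real hit on visual review, cut at about 60% in these data, passing the limit was not always enough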
HSV replic up: HSV replication enhancement | 0.005% of 220,000 active | HSV replication augmentation in cells, fold increase | maximum fold increase;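 active = peak rise of 1.5-fold or more in the series; tested in PC3 cells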;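 note: first round at 10 µM; read as green reporter fluorescence; hits show the peak of a series up to 25 µM; 1 = signal of infected wells without compound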
GALR2 agonist: activates the human galanin receptor 2. O43603. GALR2-expressing cells, agonist activation read-out. activation, %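 (tested at 5 µM)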. 0.48% of 140,000 active;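 active = above mean plus 3 SD of all compounds, about 5% in these data, not always enough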;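 note: 0% = vehicle buffer wells and 100% = reference agonist at full effect; tested in CHO reporter cells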
Insulin prom inh cell count: recorded beside Insulin prom inh, whose call it bears; normalized cell count, %; measured here: cell count, toxicity; reference of the scale not given here;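 cells exposed to compound for 48 h; stained nuclei by imaging scaled within each plate; lower means fewer cells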
HSV replic up primary fold: second read-out of HSV replic up, no call of its own (marks repeat the call); fold increase; compound at 10 µM; measured here: primary screen fold increase 10 uM; tested in PC3 cells;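 GFP signal in the first replicate; 1 = infected wells without compound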
* marks the source's active call; other numbers are inactive results.

What do the screens show for `Cc1ccccc1NC(=O)/C(=C\c1cccs1)NC(=O)c1ccco1`?
RGS16-Gao: 101; PKD1 inh: -11; Insulin prom inh: -25; HSV replic up: inactive; GALR2 agonist: -3.4; Insulin prom inh cell count: 86; HSV replic up primary fold: 1.2

How did CCCCC(=O)Nc1ccc2c(c1)C(=O)NC2=O do in these assays?
RGS16-Gao: 101; PKD1 inh: -4; HSV replic up: inactive; GALR2 agonist: -4.7; HSV replic up primary fold: 0.85

Results for COc1ccc(C)cc1N(CC(=O)Nc1cccnc1)S(=O)(=O)c1ccccc1 ?
RGS16-Gao: 105; PKD1 inh: 1; HSV replic up: inactive; HSV replic up primary fold: 1.1

What do the screens show for `Cc1cc2c(nn1)CCC/C2=N\O`?
RGS16-Gao: 102; PKD1 inh: -8; Insulin prom inh: 8; HSV replic up: inactive; GALR2 agonist: 0.4; Insulin prom inh cell count: 98; HSV replic up primary fold: 0.89

Results for CN(CCCOc1ccccc1Br)Cc1ccccc1 ?
RGS16-Gao: 98; PKD1 inh: -3; Insulin prom inh: 62; HSV replic up: inactive; Insulin prom inh cell count: 110; HSV replic up primary fold: 0.93

Results for COc1ccccc1COCC(O)CNCC1(N2CCCCC2)CCCCC1 (configuration not stated) ?
RGS16-Gao: 99; PKD1 inh: -6; HSV replic up: inactive; GALR2 agonist: -2.8; HSV replic up primary fold: 0.88

Retrieved by structure from above:
What do the screens show for `Cc1ccccc1NC(=O)/C(=C\c1cccs1)NC(=O)c1ccco1`?
RGS16-Gao: 101; PKD1 inh: -11; Insulin prom inh: -25; HSV replic up: inactive; GALR2 agonist: -3.4; Insulin prom inh cell count: 86; HSV replic up primary fold: 1.2

Results for COc1ccccc1COCC(O)CNCC1(N2CCCCC2)CCCCC1 (configuration not stated) ?
RGS16-Gao: 99; PKD1 inh: -6; HSV replic up: inactive; GALR2 agonist: -2.8; HSV replic up primary fold: 0.88

Results for CN(CCCOc1ccccc1Br)Cc1ccccc1 ?
RGS16-Gao: 98; PKD1 inh: -3; Insulin prom inh: 62; HSV replic up: inactive; Insulin prom inh cell count: 110; HSV replic up primary fold: 0.93
